Screens deposited in PubChem by Broad Institute.
ID4 binder – binders of human ID4 protein, primary screen, biochemical, small molecule microarray, single point; DNA-binding protein inhibitor ID-4 (Homo sapiens), P47928; Flag-ID4 binding, fluorescence F/B; calls only; 31,000 compounds, 1.2% hits; AID 624137, 2012;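 active = spot signal over background at p below 0.07 in all four prints; compounds were printed on slides so no solution concentration is given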;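 note: a binder raises fluorescence above local background on the spot; about 2 pmol printed per array spot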
Target sequence (P47928 whole entry, looked up): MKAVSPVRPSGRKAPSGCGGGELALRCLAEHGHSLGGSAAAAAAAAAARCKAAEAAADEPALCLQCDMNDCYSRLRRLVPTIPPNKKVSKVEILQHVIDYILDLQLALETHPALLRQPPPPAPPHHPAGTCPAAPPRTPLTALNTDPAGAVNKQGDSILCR
Myc binder – binders of human c-Myc, primary screen, biochemical, small molecule microarray, anti-His fluorescence. His-c-Myc binding. calls only. AID 624141, 2012. Myc proto-oncogene protein (Homo sapiens), P01106. 17,000 compounds, 1.5% hits;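 active = spot fluorescence over background with P-value below 7% in all four replicate spots, showing protein binding; compounds were printed on slides so no solution concentration is given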;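 note: score is binary with 100 for all four spots passing and 0 otherwise; about 2 pmol printed per array spot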
Target sequence (P01106 whole entry, looked up): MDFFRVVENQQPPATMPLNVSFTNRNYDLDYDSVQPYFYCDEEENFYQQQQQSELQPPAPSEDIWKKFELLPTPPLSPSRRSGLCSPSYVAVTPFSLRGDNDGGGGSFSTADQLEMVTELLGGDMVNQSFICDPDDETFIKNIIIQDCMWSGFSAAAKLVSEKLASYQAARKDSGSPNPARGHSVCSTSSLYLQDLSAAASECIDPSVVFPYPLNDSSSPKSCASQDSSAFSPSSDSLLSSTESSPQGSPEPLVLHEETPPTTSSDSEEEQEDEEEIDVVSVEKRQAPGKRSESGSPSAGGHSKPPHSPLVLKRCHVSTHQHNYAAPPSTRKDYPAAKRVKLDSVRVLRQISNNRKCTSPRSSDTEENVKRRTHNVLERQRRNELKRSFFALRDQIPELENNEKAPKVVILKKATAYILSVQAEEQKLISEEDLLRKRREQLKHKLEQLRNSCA
STAT3 binder – STAT3 binders, primary screen, biochemical, small molecule microarray, single point, set 2; Signal transducer and activator of transcription 3 (Homo sapiens), P40763; His-STAT3 binding, anti-His fluorescence; AID 624138, 2012; 17,000 compounds, 0.2% hits; calls only;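 active = compounds whose four printed spots each show fluorescence over background unusually high for their array block, chance value under 7%; compounds were printed on slides so no solution concentration is given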;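 note: about 2 pmol printed per array spot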
mut p53 SMM – binders of human mutant p53, primary screen, biochemical, small molecule microarray, anti-GST fluorescence; AID 624136, 2012; small molecule microarray binding; calls only; 17,000 compounds, 0.4% hits; mutant tumor protein p53 (GST-tagged), Homo sapiens;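 active = compounds whose four printed spots each glow above background more than chance allows, each with a p-value under 7%; compounds were printed on slides so no solution concentration is given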;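 note: about 2 pmol printed per array spot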
Calls only; i = inactive; nt = no result given; + = active, no number. Not all compounds are listed. The share of hits here may be higher or lower than overall.

Structure | ID4 binder | Myc binder | STAT3 binder | mut p53 SMM
C[C@H](CO)N1C[C@H](C)[C@H](CN(C)C(=O)Nc2ccc(F)cc2)Oc2ccc(NC(=O)NC3CCCCC3)cc2CC1=O | i | i | i | i
CCn1c(SCc2nc3ccccc3c(=O)[nH]2)nnc1-c1ccccc1C | i | i | i | i
C[C@@H]1O[C@@H](O[C@H]2[C@@H]3C=CO[C@@H](O[C@@H]4O[C@H](CO)[C@@H](O)[C@H](O)[C@H]4O)[C@@H]3[C@@]3(CO)O[C@@H]23)[C@H](O)[C@H](OC(=O)/C=C/c2ccccc2)[C@H]1O | nt | i | i | i
Cc1noc(C)c1S(=O)(=O)Nc1ccc2c(c1)C(=O)N([C@@H](C)CO)C[C@@H](C)[C@H](CN(C)C(=O)Nc1ccccc1)O2 | i | i | i | i
C[C@H]1CCCCO[C@@H](CN(C)S(=O)(=O)c2cn(C)cn2)[C@@H](C)CN([C@@H](C)CO)C(=O)c2cc(NS(=O)(=O)c3cn(C)cn3)ccc2O1 | i | i | i | i
COc1ccc(-c2coc3cc(O)ccc3c2=O)cc1O | nt | i | i | i
C[C@@H]1CN([C@H](C)CO)C(=O)Cc2cc(NC(=O)C3CC3)ccc2O[C@@H]1CN(C)Cc1ccc2c(c1)OCO2 | i | i | i | i
COc1ccc(S(=O)(=O)N(C)C[C@H]2Oc3ccc(NC(=O)CCN4CCOCC4)cc3C(=O)N([C@@H](C)CO)C[C@@H]2C)cc1 | i | i | i | i
CC(=O)NC(Cc1c[nH]c2cc(Cl)ccc12)C(=O)O (stereo not drawn) | i | i | i | i
Cc1noc(C)c1S(=O)(=O)Nc1ccc2c(c1)CC(=O)N([C@@H](C)CO)C[C@H](C)[C@H](CN(C)Cc1ccc(-c3ccccc3)cc1)O2 | i | i | i | i

Pulled by structure from the list above:
Structure | ID4 binder | Myc binder | STAT3 binder | mut p53 SMM
Cc1noc(C)c1S(=O)(=O)Nc1ccc2c(c1)C(=O)N([C@@H](C)CO)C[C@@H](C)[C@H](CN(C)C(=O)Nc1ccccc1)O2 | i | i | i | i
COc1ccc(S(=O)(=O)N(C)C[C@H]2Oc3ccc(NC(=O)CCN4CCOCC4)cc3C(=O)N([C@@H](C)CO)C[C@@H]2C)cc1 | i | i | i | i

The list continues:
Structure | ID4 binder | Myc binder | STAT3 binder | mut p53 SMM
CNC[C@@H]1OCCCC[C@@H](C)Oc2ccc(NC(=O)NC(C)C)cc2C(=O)N([C@H](C)CO)C[C@@H]1C | i | i | i | i
C[C@H](CO)N1C[C@H](C)[C@H](CN(C)S(=O)(=O)c2cccs2)Oc2ccc(NC(=O)CCN3CCOCC3)cc2C1=O | nt | i | i | i
Cc1ccc(S(=O)(=O)N(C)C[C@@H]2Oc3ccc(NC(=O)C4CC4)cc3CC(=O)N([C@@H](C)CO)C[C@H]2C)cc1 | i | i | i | i
O=C(Cc1ccccc1)Nc1nc2ccc(Cl)cc2c2nc(-c3ccco3)nn12 | i | i | i | i
COc1cc(C(=O)NCC(=O)O)cc(OC)c1OC | i | i | i | i
O=C(CCc1nc(-c2ccccc2)no1)Nc1ccccc1Cl | i | i | i | i
CCOc1ccccc1CNc1nc2nc3c(c(=O)n2[nH]1)CCC3 | i | i | i | i
CCC(C)S(=O)(=O)c1oc(-c2ccc(C)cc2)nc1S(=O)(=O)c1ccccc1 (stereo not drawn) | i | i | i | i
CC1CC[C@@]2(OC1)O[C@H]1CC3C4CC=C5C[C@@H](O[C@@H]6O[C@H](CO)[C@@H](O)[C@H](O)[C@H]6O)CC[C@]5(C)C4CC[C@]3(C)[C@@]1(O)[C@@H]2C (stereo partly drawn) | i | i | i | i
C[C@@H]1CN([C@H](C)CO)C(=O)c2cccc(NS(=O)(=O)c3ccccc3)c2O[C@H]1CN(C)C(=O)Nc1ccc2c(c1)OCO2 | i | i | i | i
C[C@H]1CCCCO[C@@H](CN(C)Cc2ccncc2)[C@@H](C)CN([C@@H](C)CO)C(=O)c2cc(NC(=O)c3ccncc3)ccc2O1 | i | i | i | i
C[C@H](CO)N1C[C@H](C)[C@H](CN(C)Cc2ccc(C(F)(F)F)cc2)Oc2ccc(NS(C)(=O)=O)cc2C1=O | nt | i | i | i
COc1ccc2c(c1)cc(C)c1nnc(SCC(=O)Nc3cccc(C(C)=O)c3)n12 | i | i | i | i
COc1ccc(NC(=O)Nc2ccc3c(c2)C(=O)N([C@@H](C)CO)C[C@@H](C)[C@H](CN(C)S(=O)(=O)c2ccc(Cl)cc2)OCCCC[C@@H](C)O3)cc1 | nt | i | i | i
C[C@@H]1CN([C@H](C)CO)C(=O)CCCn2cc(nn2)CO[C@H]1CN(C)S(=O)(=O)c1cn(C)cn1 | i | i | i | i
Cc1ccc(-c2nc3ccccc3c(=O)n2CCCn2ccnc2)cc1 | i | i | i | i
O=C1O[C@H](c2ccccc2)[C@H](c2ccccc2)N2[C@H]1[C@@H](C(=O)O)[C@]1(C(=O)Nc3ccc(C#CCCO)cc31)[C@H]2c1ccccc1OCCO | nt | i | i | i
C=C(C)C(O)C(O)c1c(OC)ccc2ccc(=O)oc12 (stereo not drawn) | i | i | i | i
COc1ccc(COCC23N=C4SCc5ccccc5CN4[C@H](c4ccccc4O2)[C@H]3CO[Si](C)(C)C(C)(C)C)cc1 | i | i | i | i
CC(=O)N1CCN(C)CC1 | nt | i | i | i
C[C@@H]1CN([C@@H](C)CO)C(=O)c2cccc(NC(=O)c3ccc(-c4nccs4)cc3)c2O[C@@H]1CN(C)CC1CC1 | i | i | i | i
CC(C)=CCc1c(O)cc(O)c2c1OC(c1ccccc1)CC2=O (stereo not drawn) | nt | i | i | i
O=C(O)C1=C[C@H](c2ccc3c(c2)Cc2ccccc2-3)C[C@H](OCc2ccc(CO)cc2)O1 | nt | i | i | i
COc1ccc(NC(=O)N(C)C[C@@H]2OCCCC[C@@H](C)Oc3ccc(NC(=O)Nc4ccc(C(F)(F)F)cc4)cc3C(=O)N([C@H](C)CO)C[C@@H]2C)cc1 | nt | i | i | i
C[C@@H]1CN([C@@H](C)CO)C(=O)Cc2cc(NS(C)(=O)=O)ccc2O[C@H]1CN(C)S(=O)(=O)c1cn(C)cn1 | i | i | i | i
C[C@@H]1CN([C@@H](C)CO)C(=O)c2cc(NC(=O)CCC(F)(F)F)ccc2O[C@@H](C)CCCCO[C@H]1CN(C)S(=O)(=O)c1ccccc1 | i | i | i | i
COc1ccc(CN(C)C[C@H]2Oc3ccc(NC(=O)CCN4CCOCC4)cc3C(=O)N([C@@H](C)CO)C[C@H]2C)cc1 | i | i | i | i
Cc1[nH]c2ccccc2c1C(=O)CSc1nc2sc3c(c2c(=O)n1-c1ccccc1)CCC3 | i | i | i | i
CC(/C=C/C1(O)C(C)CC(O)CC1(C)C)OC1OC(CO)C(O)C(O)C1O (stereo not drawn) | i | i | i | i
Cc1noc(C)c1NC(=O)N(C)C[C@@H]1Oc2c(cccc2N(C)C)C(=O)N([C@H](C)CO)C[C@H]1C | i | i | i | i
CNC[C@@H]1Oc2ccc(NS(=O)(=O)c3ccc(Cl)cc3)cc2CC(=O)N([C@H](C)CO)C[C@@H]1C | i | i | i | i
CC(C)NC(=O)Nc1ccc2c(c1)C(=O)N([C@H](C)CO)C[C@@H](C)[C@H](CN(C)S(=O)(=O)c1cn(C)cn1)OCCCC[C@@H](C)O2 | i | i | i | i
Cc1noc(C)c1NC(=O)Nc1cccc2c1O[C@@H](CN(C)Cc1ccc(C(=O)O)cc1)[C@@H](C)CN([C@@H](C)CO)C2=O | i | i | i | i
C[C@H]1CN([C@@H](C)CO)C(=O)CCCn2cc(nn2)CO[C@H]1CN(C)C(=O)CCCN(C)C | i | i | i | i
C[C@@H]1CCCCO[C@H](CN(C)Cc2ccccc2)[C@H](C)CN([C@H](C)CO)C(=O)c2cc(NC(=O)CCC(F)(F)F)ccc2O1 | i | i | i | i
CCc1cc2c(c(CC)n1)CCC(=O)N2Cc1ccc(-c2ccccc2-c2nn[nH]n2)cc1 | i | i | i | i
C[C@H](CO)N1C[C@H](C)[C@H](CN(C)C(=O)Nc2ccccc2)Oc2ncc(-c3cccc(C(F)(F)F)c3)cc2C1=O | i | + | i | i
O=C(O)CNC(=O)c1ccc(S(=O)(=O)N2CCCC2)cc1 | i | i | i | i
CC(C)NC(=O)N(C)C[C@@H]1Oc2ccc(NS(=O)(=O)c3ccccc3)cc2C(=O)N([C@@H](C)CO)C[C@H]1C | i | i | i | i
Cc1cc(C)nc(NS(=O)(=O)c2ccc(Nc3nc(-c4ccc(F)cc4)cs3)cc2)n1 | i | i | i | i
C[C@H](CO)N1C[C@H](C)[C@H](CN(C)C(=O)Nc2ccc(N3CCCCC3)cc2)OCc2cn(nn2)CCCC1=O | i | i | i | i
C[C@@H]1CN([C@@H](C)CO)C(=O)c2cccc(NS(=O)(=O)c3cccs3)c2O[C@H]1CN(C)Cc1ccc(C(F)(F)F)cc1 | i | i | i | i
O=C1C(=O)N(Cc2ccco2)C(c2cccnc2)C1C(=O)c1cc2ccccc2o1 (stereo not drawn) | i | i | i | i
C[C@@H]1CN([C@@H](C)CO)C(=O)Cc2cc(NC(=O)Nc3ccc(F)cc3)ccc2O[C@H]1CN(C)S(=O)(=O)c1ccc(F)cc1 | nt | i | i | i
CC(C)=CCc1c(-c2ccc(O)cc2O)oc2c(CC=C(C)C)c(O)cc(O)c2c1=O | nt | i | i | i
CC(C)NC(=O)N(C)C[C@@H]1OCCCC[C@H](C)Oc2ccc(NS(=O)(=O)c3cn(C)cn3)cc2C(=O)N([C@@H](C)CO)C[C@@H]1C | i | i | i | i
CNC[C@H]1OCCCC[C@@H](C)Oc2ccc(NC(=O)Nc3cccc4ccccc34)cc2C(=O)N([C@H](C)CO)C[C@@H]1C | i | i | i | i
C[C@H]1CN([C@@H](C)CO)C(=O)Cc2cc(NC(=O)C3CC3)ccc2O[C@@H]1CN(C)Cc1ccc(Cl)c(Cl)c1 | i | i | i | i
CC1(C)CC[C@]2(C(=O)O[C@@H]3O[C@H](CO)[C@@H](O)[C@H](O)[C@H]3O)CC[C@]3(C)C(=CCC4[C@@]5(C)CC[C@H](OC6O[C@H](CO)[C@@H](O)[C@H](O[C@@H]7O[C@H](CO)[C@@H](O)[C@H](O)[C@H]7O)[C@H]6O)C(C)(C)C5CC[C@]43C)[C@@H]2C1 (stereo partly drawn) | i | i | i | i
COc1ccc(/C=C/C(=O)OC2C(C)OC(OC3C4C=COC(OC5OC(CO)C(O)C(O)C5O)C4C4(CO)OC34)C(O)C2O)cc1 (stereo not drawn) | nt | i | i | i

Additional records follow:
Structure | ID4 binder | Myc binder | STAT3 binder | mut p53 SMM
C[C@@H]1CN([C@@H](C)CO)C(=O)c2cc(NC(=O)Nc3cccc4ccccc34)ccc2O[C@@H](C)CCCCO[C@@H]1CN(C)C(=O)CCCN(C)C | i | i | i | i
C[C@@H]1CN([C@H](C)CO)C(=O)c2cccc(NS(=O)(=O)c3cccs3)c2O[C@@H]1CN(C)C | nt | i | i | i
CC(C)NC(=O)N(C)C[C@@H]1Oc2ccc(NC(=O)CCN3CCOCC3)cc2C(=O)N([C@H](C)CO)C[C@@H]1C | i | i | i | i
COc1ccc(NC(=O)CN(c2cc(C)ccc2OC)S(C)(=O)=O)cc1Cl | i | i | i | i
COc1cccc(NC(=O)CC2COc3ccccc3O2)c1 (stereo not drawn) | i | i | i | i
C[C@@H]1CN([C@H](C)CO)C(=O)c2cccc(NS(=O)(=O)c3ccccc3)c2O[C@H]1CN(C)C(=O)NC1CCCCC1 | i | i | i | i
COC(=O)C(O)(c1ccc(NC(=S)NC(=O)c2ccc(Cl)cc2Cl)c(OC)c1)C(F)(F)F (stereo not drawn) | i | i | i | i
Cc1noc(C)c1NC(=O)N(C)C[C@@H]1OCCCC[C@H](C)Oc2ccc(NS(=O)(=O)c3cccs3)cc2C(=O)N([C@H](C)CO)C[C@@H]1C | i | i | i | i
CCOc1ccc(N2C(=O)CS(=O)(=O)C2c2ccccc2)cc1 (stereo not drawn) | i | i | i | i
C[C@H](CO)N1C[C@H](C)[C@@H](CN(C)Cc2ccc3c(c2)OCO3)Oc2ccc(NC(=O)CCCCCC(=O)Nc3ccccc3N)cc2CC1=O | nt | i | i | i
Cc1ccc(F)cc1S(=O)(=O)N[C@@H]1CCN(C(=O)c2ccc(OC(C)C)cc2)C1 | nt | i | i | i
Cn1c(=O)c2c(ncn2Cc2cc(-c3ccccc3)no2)n(C)c1=O | i | i | i | i
COc1c(-c2ccccc2)oc2c(CC=C(C)C)c3c(c(OC)c2c1=O)C=CC(C)(C)O3 | i | i | i | i
C[C@H]1CN([C@@H](C)CO)C(=O)CCCn2nncc2CO[C@@H]1CN(C)Cc1ccc(Oc2ccccc2)cc1 | i | i | i | i
O=C(c1ccc([N+](=O)[O-])cc1)N(Cc1cc2ccccc2[nH]c1=O)c1ccccc1 | + | i | i | i
